HSV augment: HSV replication enhancement | HSV replication augmentation in cells, fold increase | maximum fold increase | 220,000 tested, 0.005% active | AID 1956;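 active means peak rise of 1.5-fold or more in the series; tested in PC3 cells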;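 further: first round at 10 µM; read as green reporter fluorescence; hits show the peak of a series up to 25 µM; 1 = signal of infected wells without compound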
GALR2 agonist: GALR2 (human) receptor agonism | O43603 | 140,000 tested, 0.48% active | GALR2-expressing cells, agonist activation read-out | activation, %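 (tested at 5 µM)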;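 active means above mean plus 3 SD of all compounds, about 5% in these data, not always enough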;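 further: 0% = vehicle buffer wells and 100% = reference agonist at full effect; tested in CHO reporter cells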
RGS16-Gao: modulates binding between human RGS16 and Galphao | bead-based flow cytometry RGS16-Galphao binding, fluorescence; actives lie on both sides | 220,000 tested, 0.38% active | binding response (% of control), % at 10 µM | O15492+P09471;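 active means below 25% or above 175%, edge rows of some plates excepted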;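 further: Galphao activated by GDP with aluminum fluoride before binding; 100% = wells without compound and 0% = beads without RGS; some results beyond the cut were filed as inactive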
PKD1 inh: blocks activity of human protein kinase D1 | Q15139 | PKD1 kinase fluorescence polarization assay | inhibition, %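 (about 10 µM by stock and volumes)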 | 200,000 tested, 0.056% active;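 active means inhibition of 50% or more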;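 further: controls were vehicle for no effect and a reference inhibitor for full effect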
Target sequence (Q15139 whole entry, looked up): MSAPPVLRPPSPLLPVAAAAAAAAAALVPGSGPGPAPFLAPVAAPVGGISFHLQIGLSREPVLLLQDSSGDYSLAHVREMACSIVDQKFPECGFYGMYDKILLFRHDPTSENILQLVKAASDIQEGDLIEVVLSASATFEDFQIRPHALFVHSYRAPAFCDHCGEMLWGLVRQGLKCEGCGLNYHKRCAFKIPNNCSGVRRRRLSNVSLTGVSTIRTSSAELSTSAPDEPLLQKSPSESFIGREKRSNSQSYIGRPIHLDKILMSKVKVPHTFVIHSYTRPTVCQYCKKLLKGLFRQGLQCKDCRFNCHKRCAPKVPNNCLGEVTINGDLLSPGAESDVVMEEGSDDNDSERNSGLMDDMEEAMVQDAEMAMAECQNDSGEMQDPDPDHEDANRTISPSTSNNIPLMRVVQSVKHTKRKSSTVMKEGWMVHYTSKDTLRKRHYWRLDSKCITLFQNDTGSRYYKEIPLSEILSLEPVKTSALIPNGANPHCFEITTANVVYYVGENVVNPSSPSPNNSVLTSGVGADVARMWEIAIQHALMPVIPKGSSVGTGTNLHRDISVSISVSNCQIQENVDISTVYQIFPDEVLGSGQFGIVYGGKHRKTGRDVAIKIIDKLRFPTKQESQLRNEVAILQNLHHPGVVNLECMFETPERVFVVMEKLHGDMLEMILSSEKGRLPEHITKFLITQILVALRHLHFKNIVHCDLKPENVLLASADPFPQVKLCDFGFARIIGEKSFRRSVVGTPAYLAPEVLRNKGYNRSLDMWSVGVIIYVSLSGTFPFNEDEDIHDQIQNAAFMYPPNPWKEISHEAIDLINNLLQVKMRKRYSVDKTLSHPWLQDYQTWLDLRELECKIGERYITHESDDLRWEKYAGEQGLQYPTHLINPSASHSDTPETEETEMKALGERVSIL
Insulin prom inh: TRM-6 insulin promoter activity inhibition; TRM-6 cells (human fetal islet line), insulin promoter-eGFP reporter, imaging; reporter expression induced with tamoxifen; inhibition, % at 2 µM; 130,000 tested, 0.9% active; AID 1273;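 active means inhibition above the mean plus 3 SD, with well images judged a real hit on visual review, cut at about 60% in these data, passing the limit was not always enough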
Insulin prom inh cell count: recorded beside Insulin prom inh, whose call it bears; normalized cell count, %; measured here: cell count, toxicity; reference of the scale not given here;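 cells exposed to compound for 48 h; stained nuclei by imaging scaled within each plate; lower means fewer cells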
HSV augment primary fold: recorded beside HSV augment, whose call it bears; fold increase; compound at 10 µM; measured here: primary screen fold increase 10 uM; tested in PC3 cells;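 GFP signal in the first replicate; 1 = infected wells without compound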
* marks the source's active call; other numbers are inactive results; i = inactive; x = not tested or not shown.

compound	HSV augment	HSV augment primary fold	GALR2 agonist	RGS16-Gao	PKD1 inh	Insulin prom inh	Insulin prom inh cell count
COc1ccc(C(=O)Nc2ccc3c(c2)C(=O)c2ccccc2C3=O)cc1OC	i	0.89	0.2	95	-6	x	x
OC[C@@H]1CCCN1Cc1cn(-c2ccccc2)nc1-c1ccc2c(c1)OCO2	i	0.91	x	97	1	x	x
COC(=O)c1c(NC(=O)Cn2cnc([N+](=O)[O-])n2)sc2c1CCC(C)C2 (centres undefined)	i	0.82	1.1	92	-13	-28	69
COC(=O)C1C(O)CCC2CN3CCc4c([nH]c5ccccc45)C3CC21 (centres undefined)	i	1.1	x	104	x	x	x
COc1cccc(-c2csc(N3CCN(C(=O)Nc4ccc(F)cc4)CC3)n2)c1	i	0.94	-1.7	102	2	19	132
CC(=O)NC(=S)Nc1ccc(S(=O)(=O)N(C)Cc2ccccc2)cc1	i	0.85	x	100	-4	x	x
O=C(C1=C[C@H](C2CCCCC2)C[C@H](OCc2ccc(CO)cc2)O1)N1CCN(Cc2ccccc2)CC1	i	0.92	x	103	-4	x	x
Cc1ccc(C(=O)N/C(=C\c2ccco2)C(=O)N2CCSCC2)cc1C	i	0.82	x	101	-5	x	x
Cc1ccc(S(=O)(=O)NCCCN(C)C)cc1	i	0.95	-0.9	100	11	18	94
CCOC(=O)c1cc(C)n(S(=O)(=O)c2ccc(C)cc2)c1C	i	0.95	-1.8	102	2	x	x
Cc1cccnc1NC(=O)C1CCN(S(=O)(=O)c2cccs2)CC1	i	0.88	-1.4	107	-8	4	68
CCOC(=O)C(CSCC(=O)c1ccc(Cl)cc1)NC(=O)OC(C)(C)C (centres undefined)	i	0.95	-2.5	103	-9	-407	102

Further structures:
compound	HSV augment	HSV augment primary fold	GALR2 agonist	RGS16-Gao	PKD1 inh	Insulin prom inh	Insulin prom inh cell count
N/C(=N\OC(=O)c1ccc(Cl)cc1)c1ccc(Cl)cc1	i	1	-0.4	105	-6	x	x
CCc1nc2ccccc2c2nc3ccccc3n12	i	0.74	0.2	111	3	6	115
O=C(CNC(=S)N(CCCN1CCOCC1)Cc1cccs1)NC1CCCCC1	i	0.96	x	101	4	x	x
O=[N+]([O-])c1ccc(OCCOc2ccccc2/C=N/n2cnnc2)cc1	i	0.87	x	107	8	-42	123
Cc1ccc(S(=O)(=O)N2CCN(S(=O)(=O)N3CCOCC3)CC2)c(C)c1	i	0.84	-2.8	101	7	-26	112
OC(CSc1ccc(F)cc1)CN1CCN(c2ccccc2)CC1 (centres undefined)	i	1.1	x	101	-7	-118	80
COc1ccc(S(=O)(=O)N2CCCC2C(=O)NCc2cccs2)cc1 (centres undefined)	i	1	-0.7	77	-12	x	x
Clc1cccc(-c2nc(NCC3CCCO3)c3ccccc3n2)c1 (centres undefined)	i	0.89	x	103	0	x	x
Cn1c(-c2cc3c(C(F)(F)F)nn(C)c3s2)n[nH]c1=S	i	0.97	-2.6	106	10	13	129
CCCCOC(=O)CCc1n[nH]c(=O)[nH]c1=O	i	0.99	-0.9	104	-9	x	x
O=C(CCCn1c(=S)[nH]c2ccc(Br)cc2c1=O)N1CCN(c2ccccn2)CC1	i	1	0.0	98	1	8	62
Fc1cccc(Cc2noc(CN3CCN(c4cnccn4)CC3)n2)c1	i	1.1	x	103	0	x	x

(further entries)
compound	HSV augment	HSV augment primary fold	GALR2 agonist	RGS16-Gao	PKD1 inh	Insulin prom inh	Insulin prom inh cell count
CCO[C@@H]1OC(C(=O)N2CCOCC2)=C[C@H](c2coc3ccccc3c2=O)[C@H]1CCCO	i	1	x	110	3	x	x
CCOCCCNCc1ccc(OCc2ccccc2Cl)cc1	x	x	-0.6	107	-8	-100	67
O=C(O)CCc1nnc(SCC(=O)Nc2cccc(C(F)(F)F)c2)[nH]c1=O	x	x	x	101	0	-108	59
O=C(CCc1ccccc1)OCC(=O)c1cccc([N+](=O)[O-])c1	i	1.1	x	100	-7	21	134
O=C(NCCn1cccn1)c1ccc(OC2CCN(CCc3ccccc3)CC2)cc1	i	1	x	98	1	x	x
Cc1ccc2c(c1)c1c(n2C)C(=O)CCC1	i	0.84	-4.1	100	-5	-41	72
c1ccc(C(c2ccccc2)c2nc(-c3cccnc3)no2)cc1	i	1	0.4	49	-6	26	105
COc1cnc(-c2ccccc2)nc1Oc1ccccc1C	i	1.1	1.5	139	-2	x	x
CS(=O)(=O)c1cnc(-c2ccccc2)nc1-c1ccc(Cl)c(Cl)c1	i	0.97	x	93	-15	-67	148
COCCNC(=S)NC12CC3CC(CC(C3)C1)C2	i	0.77	-3.9	98	8	21	117
COc1ccc(OC)c(NC(=O)C2C3CCC(O3)C2C(=O)O)c1 (centres undefined)	x	x	-3.1	98	-1	x	x
Cc1ccc(S(=O)(=O)C2(C(=O)Nc3ccc4c(c3)OCO4)CC2)cc1	i	0.98	0.4	108	-1	x	x

The list goes on:
compound	HSV augment	HSV augment primary fold	GALR2 agonist	RGS16-Gao	PKD1 inh	Insulin prom inh	Insulin prom inh cell count
O=C(Oc1ccc(/C=N/O)cc1)c1ccccc1	i	0.83	0.0	98	0	6	99
O=C(NC1CCCCC1)C(c1cccnc1)N(C(=O)CCl)c1ccc(F)cc1 (centres undefined)	i	0.89	0.4	110	-11	x	x
CC(C)CN(C(=O)c1nn(C)c(=O)c2ccccc12)c1nc2ccccc2s1	i	0.89	-1.2	86	6	-18	191
CC1=CC(=O)C(C(C)=Nc2ccccc2Cl)C(=O)O1 (centres undefined)	i	1.2	x	102	x	x	x
COc1cccc(CNc2cccc(C(F)(F)F)c2)c1O	i	0.97	x	106	11	x	x
O=C(Nc1cccc(O)c1)c1cc2nc(-c3ccccc3)cc(-c3ccccc3)n2n1	i	0.86	3.1	40	0	-11	90
O=C(Nc1ccccc1-c1nc2ccccc2s1)c1ccco1	i	1.1	0.5	36	4	x	x
CCCCOc1ccc(C(=O)Nc2ccc(SC(F)F)cc2)cc1OC	i	0.92	-1.2	97	-11	-3	122
COc1ccc(Cc2nnc(NC(C)=O)s2)cc1	i	1	x	44	-2	x	x
C=CCn1c(SCC(=O)Nc2c(C)nn(Cc3ccccc3)c2C)nnc1C(O)c1ccccc1 (centres undefined)	i	0.92	-2.4	101	3	23	49
COc1ccc(Cl)cc1NC(=O)CCc1nc(-c2ccccc2F)no1	i	1.1	x	100	-4	x	x
CN(C)CCCNC(=S)N(Cc1cccs1)Cc1cc2cc3c(cc2[nH]c1=O)OCCO3	i	0.89	x	98	-6	-60	104

Full records, looked up by structure. Values in the order: HSV augment, HSV augment primary fold, GALR2 agonist, RGS16-Gao, PKD1 inh, Insulin prom inh, Insulin prom inh cell count
Record of CN(C)CCCNC(=S)N(Cc1cccs1)Cc1cc2cc3c(cc2[nH]c1=O)OCCO3 : i, 0.89, x, 98, -6, -60, 104
Record of CC1=CC(=O)C(C(C)=Nc2ccccc2Cl)C(=O)O1 (centres undefined) : i, 1.2, x, 102, x, x, x

Next part.
compound	HSV augment	HSV augment primary fold	GALR2 agonist	RGS16-Gao	PKD1 inh	Insulin prom inh	Insulin prom inh cell count
CC(C)N(Cc1nc(COc2ccccc2)no1)Cc1nccn1C	i	0.99	x	102	4	x	x
CCn1c(-c2ccco2)n[nH]c1=S	i	0.86	0.5	52	2	47	71
O=S(=O)(Cc1noc(-c2ccc(OC(F)(F)F)cc2)n1)c1ccc(F)cc1	i	0.96	x	108	x	x	x
CCOC(=O)c1[nH]c(C)c(C(=O)Nc2ccc(C)cc2C)c1C	i	0.61	-1.3	119	10	x	x
CC/C=C/C(=O)N1CC2(CC(c3cccc(NC(=O)CC)c3)=NO2)C[C@H]1C(N)=O (some centres undefined)	i	0.87	x	103	x	x	x
COc1ccc(NC(=O)c2cc3sccc3n2Cc2ccc(F)cc2)cc1OC	i	0.97	-3.1	105	-3	14	123
CCOc1ccc(C(=O)N2CCCC2)cc1OC	i	0.86	-2.1	114	8	-72	102
CCC1=C(OC(=O)N(CC)CC)N2C(=O)OC(=NCCc3c[nH]c4ccccc34)[C@]2(Cc2ccccc2)[C@H]2C1=CC[C@H]1C(=O)N(c3ccccc3)C(=O)[C@H]12	i	0.88	x	102	x	x	x
CC1CCc2nc(NC(=O)c3ccco3)sc2C1 (centres undefined)	i	0.76	0.0	104	5	31	98
Cc1cc(C)cc(-n2ccnc2SCC(=O)Nc2nccs2)c1	i	1.1	-0.6	107	-7	x	x
O=C1Cc2ccccc2C(=O)N1OCc1ccc(Cl)cc1	i	1	x	110	-3	41	138
O=C(c1ccccc1)N1CCN(C(=O)c2ccc3c(c2)OCCO3)CC1	i	1	x	85	2	56	96

Three entries picked at random from those above, as already listed:
compound	HSV augment	HSV augment primary fold	GALR2 agonist	RGS16-Gao	PKD1 inh	Insulin prom inh	Insulin prom inh cell count
Cc1cc(C)cc(-n2ccnc2SCC(=O)Nc2nccs2)c1	i	1.1	-0.6	107	-7	x	x
CC(C)N(Cc1nc(COc2ccccc2)no1)Cc1nccn1C	i	0.99	x	102	4	x	x
CC1CCc2nc(NC(=O)c3ccco3)sc2C1 (centres undefined)	i	0.76	0.0	104	5	31	98

Single values from the list:
CCn1c(-c2ccco2)n[nH]c1=S | Insulin prom inh cell count: 71
O=C(NCCn1cccn1)c1ccc(OC2CCN(CCc3ccccc3)CC2)cc1 | RGS16-Gao: 98
Cc1ccc(S(=O)(=O)NCCCN(C)C)cc1 | PKD1 inh: 11
Cc1ccc(S(=O)(=O)N2CCN(S(=O)(=O)N3CCOCC3)CC2)c(C)c1 | Insulin prom inh: -26
O=C(C1=C[C@H](C2CCCCC2)C[C@H](OCc2ccc(CO)cc2)O1)N1CCN(Cc2ccccc2)CC1 | PKD1 inh: -4

Next records
compound	HSV augment	HSV augment primary fold	GALR2 agonist	RGS16-Gao	PKD1 inh	Insulin prom inh	Insulin prom inh cell count
CC(NC(=O)C12CC3(C)CC(C)(CC(C)(C3)C1)C2)C(=O)O (centres undefined)	i	0.89	x	101	-7	71*	121*
CCS(=O)(=O)N1CCC(c2nc(-c3ccc(C)cc3)no2)CC1	x	x	0.0	86	8	x	x
Cc1noc(C)c1C(=O)OCC(=O)NC1CC1	i	0.86	-2.2	98	-4	x	x
CCC1=[N+](C)c2cccc3cccc(c23)N1C	i	0.93	x	89	-1	-56	66
Cc1ccc(-c2cc(C(=O)NCCN3CCOCC3)no2)cc1	i	0.97	-0.9	100	4	-19	66
Cc1cc(C(F)F)n2ncc(C(=O)NCCc3ccccc3Cl)c2n1	i	0.95	-1.0	113	3	-9	135
CC(C)(C#CCN1CCCCC1)OCCOC(c1ccccc1)c1ccccc1	i	1.1	-0.3	97	-9	-22	91
CCOc1cc(C2CC(=O)N3CN(C4CCCCC4)CSC3=C2C#N)ccc1O (centres undefined)	i	0.79	0.9	72	3	x	x
COc1ccc(CNC(=O)CCCNS(=O)(=O)c2cccc3nonc23)cc1	i	0.71	-0.5	96	-5	x	x
CCOC(=O)Cc1csc(NS(=O)(=O)c2ccc3c4c(cccc24)C(=O)N3CC)n1	i	0.91	-2.6	100	-1	x	x
CC1(C)CC(NC(=O)c2c(N)no[n+]2[O-])CC(C)(C)N1	i	0.96	x	99	-3	29	94
Nc1nnnn1/N=C/C(Br)=C/c1ccccc1	i	0.5	-1.2	103	6	x	x

(listing goes on)
compound	HSV augment	HSV augment primary fold	GALR2 agonist	RGS16-Gao	PKD1 inh	Insulin prom inh	Insulin prom inh cell count
Cc1ccc(NC(=S)Nc2ccccn2)cc1C	i	1.1	x	95	x	x	x
CCOc1ccc(S(=O)(=O)N(C)c2ccc(OCC(=O)N3c4ccc(C)cc4C4CN(C)CCC43)cc2)cc1 (centres undefined)	i	0.97	x	105	-7	x	x
O=C1CC(N2CCN(c3ccc(S(=O)(=O)N4CCOCC4)cc3)CC2)C(=O)N1Cc1ccccc1 (centres undefined)	i	1	-1.2	102	-3	-55	88
O=c1cc(N2CCc3ccccc3C2)[nH]c(=O)n1-c1ccc(Cl)cc1	i	1.2	-1.3	99	-13	21	159
CCc1ccccc1N1CSC2=C(C#N)C(c3cc(OC)c(OC)cc3OC)CC(=O)N2C1 (centres undefined)	i	1	-2.0	77	-8	-9	46
NC(=NCCc1c[nH]c2ccccc12)NS(=O)(=O)c1cc(F)ccc1F	i	0.96	-0.5	107	52*	x	x
CCOC(=O)C1=C2SCC(=O)N2C(N)=C(C#N)C1	i	0.85	-1.4	92	-7	37	115
COc1cc(CC(=O)OC2CCOC2=O)cc(OC)c1OC (centres undefined)	i	0.94	-2.2	100	-7	16	134
O=C(Cc1ccc(F)cc1)OCn1nnc2ccccc2c1=O	i	0.93	x	100	x	x	x
